Rango-impB inh: Rango-importin beta binding inhibition. 340,000 compounds, 0.031% hits. Rango CFP/YFP FRET sensor + importin beta, 45 min. Potency, µM (doses to about 92.2 µM), inactives show at the top dose inhibition of complex formation. Q14974; active = rising FRET ratio curve, often small or poorly fitted; inconclusive = mostly compound fluorescence or quenching in the first reads; inactive = flat curves in all reads;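 further: potency means the concentration at half of the fitted maximal effect; 0% = DMSO wells and 100% = buffer wells lacking importin beta; nearly all actives have a fitted effect of over 15% in size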
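Inhibition scored from the CFP 486 nm/YFP 530 nm FRET ratio 45 min after adding 0.125 microM importin beta to 50 nM Rango biosensor preincubated 5 min with compound (room temperature, PBS with DTT, Tween-20, BSA). No-importin wells as positive control.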
miR-21 reporter: miR-21 reporter, rising signal | HeLa miR-21 FLuc reporter, luciferase, 48 h | Potency, µM (titrated, usually from 38.3 µM), inactives show at the highest dose reporter change, positive = more light | 340,000 tested, under 10 active | AID 2288; active = well fitted rising curve with a large enough effect; inconclusive = small, poorly fitted or top-dose-only effect; inactive = no such curve, though single readings can be large or run the other way;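 further: % of control where 0% means no effect; miR-21 action dims this reporter so a rising signal means less miR-21 action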
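Using DMEM plus 10% FBS, HeLa miR-21-FLuc cells are incubated with test compounds (final up to about 40uM) for 48 hours; firefly luciferase signal is then imaged following reagent-mediated lysis.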
GLA inh pH 4.5: alpha-galactosidase A (human) inhibition, pH 4.5 | P06280 | purified enzyme, 4-MU-alpha-Gal fluorescence, pH 4.5 | activity change, negative = inhibition, % at 105 µM | 230,000 tested, under 10 active | AID 1467; inconclusive = small, poorly fitted or top-dose-only inhibition, or a rising curve; inactive = flat fitted curve, though single readings scatter; no compound was filed as active;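 further: 0% = full activity with enzyme and -100% = basal without enzyme; dose as in the result columns while the protocol names 77 µM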
Target sequence (P06280 whole entry, looked up): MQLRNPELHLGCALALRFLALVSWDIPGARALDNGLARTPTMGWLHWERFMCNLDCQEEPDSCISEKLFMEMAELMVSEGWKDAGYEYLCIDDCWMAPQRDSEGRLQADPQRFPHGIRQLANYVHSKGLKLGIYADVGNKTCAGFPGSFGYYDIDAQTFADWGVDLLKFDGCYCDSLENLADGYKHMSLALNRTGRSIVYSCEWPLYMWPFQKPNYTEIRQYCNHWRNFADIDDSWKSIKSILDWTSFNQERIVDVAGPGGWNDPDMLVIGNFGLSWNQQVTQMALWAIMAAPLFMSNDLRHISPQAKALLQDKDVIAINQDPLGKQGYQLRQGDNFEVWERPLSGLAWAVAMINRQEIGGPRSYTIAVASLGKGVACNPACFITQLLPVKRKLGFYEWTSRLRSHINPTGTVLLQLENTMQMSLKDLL
Rango dissoc inh: prevents RanGTP from dissociating the Rango-importin beta complex; O95149+P62826; Biochemical FRET Rango-importin beta, RanGTP-induced dissociation; Potency, µM (top dose mostly 46.1 µM), for inactives: at the highest dose activity change, negative = inhibition; 340,000 compounds, 0.071% hits; AID 540253; active means falling FRET ratio curve, often poorly fitted, with flat reads before Ran was added; inconclusive means other falling curves, or compound fluorescence or quenching; inactive means flat or rising ratio curve;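 further: potency means the concentration at half of the fitted maximal effect; % of control where 0% means no effect; nearly all actives have a fitted effect of over 45% in size; -100% = wells without RanGTP and RCC1; the record marks most hits as doubtful in a second field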
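Rango (0.1 uM)–importin beta (0.25 uM) complex; RanGTP-RCC1 trigger; 45 min RT; CFP/YFP FRET read.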
* hit, by the source's call; u = inconclusive; x = no result given; [ ] = dose if it differs, or a comment. Not all compounds are listed; the hit share may differ from the screen's.

Screens by letter – A = Rango-impB inh; B = miR-21 reporter; C = GLA inh pH 4.5; D = Rango dissoc inh
Cc1ccc2nc3c(cc(S(=O)(=O)c4ccccc4)c(=N)n3C3CCCC3)c(=O)n2c1
  A = 3.0%; B = x; C = x; D = 7.6%

COc1cccc(CNC(=O)CCSCc2ccccc2F)c1
  A = 0.9%; B = 2.6%; C = 8.7; D = -3.0%

COc1ccc(CCN2C(=O)CC(NCc3ccc4c(c3)OCO4)C2=O)cc1OC (stereo not given)
  A = -4.3%; B = -4.4%; C = -8.5; D = 19.4%

CCOC(=O)c1ccc(CSc2nncn2N)o1
  A = -3.0%; B = -9.8%; C = 11.1; D = -4.0%

COc1cc([N+](=O)[O-])ccc1NC(=S)N1CCOCC1
  A = 3.4%; B = -0.1%; C = x; D = -1.2%

C=C(C)COc1ccc2c3c(c(=O)oc2c1OCC(=C)C)CCC3
  A = -2.7%; B = -8.3%; C = -15.4; D = -6.1%

CCOc1ccc(S(=O)(=O)NCCC(=O)NCC(C)(C)N2CCOCC2)cc1
  A = 1.9%; B = x; C = x; D = -6.5%

Cc1ccccc1OCC(=O)NNC(=O)c1ccoc1C
  A = 5.1%; B = x; C = x; D = -2.5%

COc1cccc(CNc2ccc(F)c(Cl)c2)c1
  A = -4.1%; B = -11.2%; C = 0.0; D = 33.5%

COc1cc(C(=O)N[C@H](C(=O)NC(C)C23CC4CC(CC(C4)C2)C3)C(C)C)cc(OC)c1OC (stereo not given in full)
  A = 0.4%; B = 0.4%; C = -0.8; D = 0.4%

O=C(COC(=O)CCNS(=O)(=O)c1ccccc1)NC(=O)c1ccccc1
  A = -1.7%; B = x; C = x; D = -13.2%

CCCCc1cc(=O)oc2cc(O)cc(O)c12
  A = u; B = 13.7%; C = 9.4; D = u

C=CCn1c(=N)n(CC(=O)OCC)c2ccccc21
  A = 1.1%; B = -1.5%; C = 5.9; D = -0.6%

CCS(=O)(=O)N1CCC(C(=O)Nc2ccccc2OC)CC1
  A = -1.9%; B = 0.6%; C = x; D = u

O=C(NC1CCCCC1)N1CCC(c2nc3ccc(Cl)cc3[nH]2)CC1
  A = 3.5%; B = -22.4%; C = 4.3; D = 1.3%

O=C(NCCc1nnc2ccc(SCC(=O)N3CCOCC3)nn12)c1ccccc1
  A = -1.8%; B = -5.2%; C = x; D = 7.5%

Cn1c(-c2ccccc2)c(C=O)c2ccccc21
  A = -1.1%; B = -28.3%; C = 1.1; D = -5.2%

CCc1cc2c(-c3ccccc3)cc(=O)oc2cc1OC(C)C(=O)O (stereo not given)
  A = -1.0%; B = -0.2%; C = x; D = -0.8%

CCOC(=O)C1CCCN(C(=S)Nc2ccc(OC)cc2)C1 (stereo not given)
  A = 0.6%; B = -4.9%; C = 4.3; D = 13.4%

CC(=O)Nc1ccc(NC(=O)CS(=O)(=O)c2cn(CC(=O)N3CCCC3)c3ccccc23)cc1
  A = -1.1%; B = -3.1%; C = x; D = 1.2%

O=C(CN1c2cccc3cccc(c23)S1(=O)=O)Nc1ccccc1Br
  A = -1.7%; B = x; C = x; D = 2.1%

CCOc1ccccc1CN1CCN(C/C=C/c2ccc(OC)cc2)CC1CCO (stereo not given)
  A = -0.7%; B = 0.0%; C = -1.9; D = 0.8%

CN(CC(=O)OCC(=O)Nc1ccccc1)S(=O)(=O)c1ccc(Cl)cc1
  A = 6.0%; B = -2.5%; C = -1.2; D = 6.0%

N=C1C(=O)OCC1c1ccccc1NC(=O)CN1CCCCC1 (stereo not given)
  A = u; B = 0.5%; C = 7.2; D = u

COc1ncccc1C(=O)NC1CCCc2c1cnn2-c1cc(C)cc(C)c1 (stereo not given)
  A = -0.4%; B = 2.8%; C = x; D = 3.0%

Look-ups from the list.
In Rango dissoc inh, CCOc1ccccc1CN1CCN(C/C=C/c2ccc(OC)cc2)CC1CCO (stereo not given) shows 0.8%
In GLA inh pH 4.5, CCCCc1cc(=O)oc2cc(O)cc(O)c12 shows 9.4
In Rango dissoc inh, O=C(COC(=O)CCNS(=O)(=O)c1ccccc1)NC(=O)c1ccccc1 shows -13.2%
In Rango-impB inh, Cc1ccccc1OCC(=O)NNC(=O)c1ccoc1C shows 5.1%
In Rango dissoc inh, C=C(C)COc1ccc2c3c(c(=O)oc2c1OCC(=C)C)CCC3 shows -6.1%

Following part:
Screens by letter – A = Rango-impB inh; B = miR-21 reporter; C = GLA inh pH 4.5; D = Rango dissoc inh
O=C(NC(=S)N1CCN(c2ccccn2)CC1)c1ccco1
  A = -0.8%; B = -4.7%; C = 4.4; D = 11.1%

O=C(Oc1ccc([N+](=O)[O-])cc1)c1cncc(Br)c1
  A = 2.7%; B = -15.0%; C = -2.7; D = -0.5%

O=C(NC(=O)N1CCN(c2cccc(Cl)c2)CC1)c1ccc(Cl)cc1
  A = 0.2%; B = 11.0%; C = x; D = -13.7%

COc1ccccc1NC(=O)CSc1nnnn1-c1ccccc1F
  A = 5.6%; B = -10.4%; C = x; D = 13.6%

Cc1cc(Nc2cc(C(=O)O)ccc2C)n2ncnc2n1
  A = 7.8%; B = 2.0%; C = 3.1; D = -1.3%

O=C(/C=C/c1ccc(S(=O)(=O)N2CCOCC2)cc1)NCCCn1ccnc1
  A = 3.2%; B = 0.1%; C = 5.8; D = -4.8%

O=C1NC2(CCCCC2)C(=O)N1/N=C/c1ccc(O)cc1O
  A = -0.7%; B = -13.0%; C = 9.2; D = 21.8%

CCC(C)NC(=O)C1CCCN(C(=O)NC2CCCCC2)C1 (stereo not given)
  A = 6.6%; B = 1.0%; C = 4.7; D = -6.6%

CCOC(=O)c1c(NC(=O)Cc2ccccc2)sc2c1CCN(CC)C2
  A = -1.1%; B = 9.9%; C = x; D = -8.5%

COc1ccc(NC(=S)N(CCC(C)C)C2CCN(C(C)=O)CC2)cc1
  A = 1.4%; B = -6.5%; C = x; D = -10.4%

COc1ccc(C(=O)NC(C)c2nc3ccccc3n2C)cc1OC (stereo not given)
  A = -0.2%; B = -2.2%; C = -4.7; D = -6.5%

c1ccc(-c2nnc(SCC3CCCCO3)nc2-c2ccccc2)cc1 (stereo not given)
  A = 0.2%; B = 14.5%; C = -18.8; D = -13.3%

CN(C)CCN1C(=O)C(=O)/C(=C(/O)c2ccc(OCc3ccccc3)cc2)C1c1ccncc1 (stereo not given)
  A = u; B = -12.7%; C = 2.8; D = -8.3%

CCc1ccc(C(=O)Nn2c(C)nc3ccccc3c2=O)cc1
  A = -1.8%; B = -1.3%; C = x; D = 12.4%

Cc1ccc(S(=O)(=O)N2CC3CCCN3c3ccc(C(F)(F)F)cc32)cc1 (stereo not given)
  A = -0.3%; B = -9.6%; C = 2.4; D = 16.2%

CCOC(=O)c1c(C)[nH]c(N=Nc2cccc(C)c2)c1C
  A = 0.1%; B = -52.9%; C = -17.8; D = 17.2%

Cc1cc(C(=O)N/N=C/c2cccc(OC(=O)c3ccco3)c2)n[nH]1
  A = 1.6%; B = -42.1%; C = -1.5; D = 9.0%

O=C(COc1ccc2ccccc2c1)Nc1cccc(C(=O)Nc2ccccc2C(=O)O)c1
  A = u; B = -6.8%; C = -7.0; D = 22.4%

COc1ccc(NC(=S)N(Cc2ccc(Cl)cc2)Cc2ccc(C(=O)O)cc2)cc1Cl
  A = 0.1%; B = 1.3%; C = -16.2[21.1 µM]; D = -13.5%

Cc1ccc(O)c(C(=O)c2cnc3c(c2)COc2ccccc2-3)c1
  A = 0.0%; B = 9.1%; C = -6.1; D = u

O=C(CNC(=O)N1CC(=O)Nc2ccccc21)NCc1ccccc1
  A = 1.0%; B = 0.1%; C = x; D = -12.4%

N#Cc1ccc(NC(=O)c2sc3cc(C(F)(F)F)cnc3c2-c2cccs2)cc1
  A = 1.1%; B = -0.1%; C = -5.3; D = -3.0%

S=C(Nc1cccc2ccccc12)NN1CCCCCC1
  A = 7.6%; B = x; C = x; D = -6.8%

Cn1c(COc2ccccc2)nnc1SCC(=O)NNC(=O)C1CCCCC1
  A = -2.7%; B = 4.9%; C = 2.3; D = 22.9%

COC(=O)c1ccc(CNC(=O)c2ccc(S(=O)(=O)N3CCCC(C)C3)cc2)cc1 (stereo not given)
  A = -0.1%; B = x; C = x; D = -0.6%

CCc1cccc2c1NC(=O)C2(O)N1CCCC(C)C1 (stereo not given)
  A = -2.6%; B = -26.5%; C = x; D = u

Cc1c(C)n2c(SCC(=O)Nc3ccc4c(c3)OCCO4)nnc2[nH]c1=O
  A = 2.4%; B = x; C = x; D = 1.3%

COc1ccc(-n2c(Cc3cccn3C)nnc2SCC(=O)Nc2ccc(C)cc2)cc1
  A = -5.4%; B = 0.4%; C = -5.1; D = 13.8%

Cc1ccc(NC(=O)CNC(=O)c2ccc(Br)o2)nc1
  A = -2.3%; B = x; C = x; D = 5.7%

COC(=O)c1cc(OC)c(OC)cc1NC(=O)Nc1ccccc1OC
  A = 3.9%; B = -8.4%; C = 25.7; D = -4.2%

COc1ccc(-n2c(=S)[nH]c3cc(C(=O)N(C)Cc4ccccc4)ccc3c2=O)cc1
  A = 0.9%; B = -0.5%; C = x; D = 18.3%

CCCCn1c(N)c(N(Cc2ccccc2OC)C(=O)C(C)Oc2ccc(Br)cc2)c(=O)[nH]c1=O (stereo not given)
  A = -4.2%; B = x; C = x; D = 4.6%

COCC(C)NC(=O)c1cc(S(=O)(=O)N2CCCCC2)ccc1N1CCOCC1 (stereo not given)
  A = 3.8%; B = -1.0%; C = x; D = -6.4%

O=C(CSc1c2c(nc3cc(Cl)ccc13)CCCC2)NCc1ccco1
  A = u; B = 13.6%; C = 0.2; D = -10.2%

COc1ccc(/C=N\NC(=O)c2nn(C)cc2Cl)cc1CN1CCOCC1
  A = u; B = -20.1%; C = 6.5; D = 3.1%

Cc1cc(C)c2nc(N3CCCC3)c(C#N)cc2c1
  A = u; B = -1.1%; C = -1.6; D = u

Cc1ccc(C(C)C)cc1S(=O)(=O)Nc1ccncc1
  A = -0.8%; B = -6.7%; C = x; D = -8.3%

Cc1ccc(SCC(=O)Nc2ccc3c(c2)OCCO3)cc1
  A = 2.1%; B = -62.1%; C = 6.2; D = -12.9%

COc1ccc(O)c(C(=O)c2cnc3c(c2)c(=O)[nH]c(=O)n3C)c1
  A = -2.3%; B = -16.2%; C = -24.2; D = -13.6%

Cc1cc(=O)[nH]c2ccc(Cl)cc12
  A = -0.5%; B = -3.1%; C = 9.4; D = -2.6%

CN(C)S(=O)(=O)c1cccc(NC(=O)CNCC2CCCCC2)c1
  A = -2.4%; B = -5.2%; C = 0.9; D = -6.8%

COc1ccccc1/C=C/C=N/n1c(-c2ccncc2)n[nH]c1=S
  A = 3.4%; B = 0.8%; C = -5.4; D = 15.6%

COc1ccc(CCNC(=O)CNC(=O)c2ccccc2Br)cc1OC
  A = 1.3%; B = -4.0%; C = x; D = -7.0%

CS(=O)(=O)N1CCN(c2ccc(NC(=O)c3ccc(Br)o3)cc2)CC1
  A = 1.9%; B = -32.4%; C = 0.5; D = -4.3%

Nn1cnn(Cc2ccccc2)c1=S
  A = -0.6%; B = -3.5%; C = -4.0; D = 16.5%

COc1ccccc1OCCN1C(=O)S/C(=C\c2ccco2)C1=O
  A = -0.8%; B = -17.5%; C = -7.6; D = -14.5%

COc1ccc(C(CCNCc2ccccc2F)c2ccc(F)cc2)cc1 (stereo not given)
  A = -3.7%; B = 7.5%; C = 4.4; D = -2.1%

Looked up one by one from the entries so far, 3 records:
Screens by letter – A = Rango-impB inh; B = miR-21 reporter; C = GLA inh pH 4.5; D = Rango dissoc inh
COc1ccc(CCNC(=O)CNC(=O)c2ccccc2Br)cc1OC
  A = 1.3%; B = -4.0%; C = x; D = -7.0%

Cc1c(C)n2c(SCC(=O)Nc3ccc4c(c3)OCCO4)nnc2[nH]c1=O
  A = 2.4%; B = x; C = x; D = 1.3%

COC(=O)c1cc(OC)c(OC)cc1NC(=O)Nc1ccccc1OC
  A = 3.9%; B = -8.4%; C = 25.7; D = -4.2%
